# Bioassay records deposited in PubChem by ICCB-Longwood Screening Facility, Harvard Medical School.
# Sa growth 42C: S. aureus growth inhibition at 42 and 30 °C, primary screen, LtaS inhibitor project, RN4220, two temperatures; relative growth, % (concentration not given with the values); OD600, 20 h, 42 °C; active compounds read low; AID 720641, 2013; actives 0.53% (n = 170,000);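 active = growth at 42 °C up to 50% and 20 or more points under that at 30 °C, or under 10% at both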;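 note: 300 nL library stock went into each well; scaled to the means of positive and negative controls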
# GIV-Gai inh: inhibitors of GIV peptide binding to Galpha-i3, primary screen, biochemical, fluorescence polarization, FITC-GIV GBA peptide, rat Galphai3. percent of control (FP), % (concentration not given with the values). 90 min; active compounds read low; scaled: aluminum fluoride 0%, vehicle 100%. actives 0.42% (n = 210,000). Guanine nucleotide-binding protein G(i) subunit alpha-3 (Rattus norvegicus), P08753;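 active = replicate mean at 85% of control or lower, very high polarization wells dropped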;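 note: wells of about 15 µL received 100 nL stock; the first replicate is given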
# Target sequence (P08753 whole entry, looked up): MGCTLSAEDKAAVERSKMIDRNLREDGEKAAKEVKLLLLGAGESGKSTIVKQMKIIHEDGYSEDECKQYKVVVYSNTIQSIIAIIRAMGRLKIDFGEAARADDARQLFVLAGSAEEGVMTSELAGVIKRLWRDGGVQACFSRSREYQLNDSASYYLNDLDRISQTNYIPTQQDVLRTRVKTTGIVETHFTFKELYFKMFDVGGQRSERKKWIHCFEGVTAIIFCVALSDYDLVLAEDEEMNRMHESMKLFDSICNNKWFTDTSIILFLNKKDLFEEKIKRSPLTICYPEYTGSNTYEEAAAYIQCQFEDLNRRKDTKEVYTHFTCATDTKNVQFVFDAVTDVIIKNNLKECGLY
# HCMV NEC inh: inhibitors of HCMV UL50-UL53 interaction, biochemical, HTRF; HCMV UL50-UL53 nuclear egress complex (human cytomegalovirus); normalized percent inhibition; inhibition, % (no concentration beside the values); actives 0.15% (n = 190,000); AID 1918969, 2023;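 active = both replicates at 50% or more, plus weaker picks with an unusually low signal ratio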;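 note: stock transfer was 100 nL into about 20 µL; 0% = negative control wells and 100% = wells with untagged competitor protein; inactives centre near -12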
# Sa growth 42C second temp: second read-out of Sa growth 42C, no call of its own (marks repeat the call); relative growth, %; measured here: growth at 30 °C;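 optical density after 20 h as mean of two plates; 100% = untreated growth and lower means inhibition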
# * marks the source's active call; other numbers are inactive results; . = not tested or not shown; & = joins results of further samples.
SMILES,Sa growth 42C,Sa growth 42C second temp,GIV-Gai inh,HCMV NEC inh
CCN(CC)CCNC(=O)c1ccc(CN2CC(=O)N3CCCCC3C2=O)cc1 (stereo unspecified),.,.,104,-15
CCCCOC(=O)Oc1cc2oc(=O)sc2cc1Br,16,36,103,-2
Cc1ncc(CSCC(=O)Nc2cc(C(F)(F)F)ccc2Cl)c(CO)c1O,111,87,104,.
COc1ccc(Br)cc1CNC(=O)c1cc(=O)[nH]c2ccc(S(=O)(=O)N3CCCC3)cc12,129,81,105,.
Cc1cc(C(F)(F)F)c(C#N)c(N)c1C#N,105,69,103,-15
CCOc1ccccc1-c1nc(=S)[nH][nH]1,123,90,98,-38
CCCN(C(=O)[C@H]1[C@@H]2C[C@@H]3[C@H]1C(=O)O[C@@H]3C2)c1c(C)cc(C)cc1C,109,84,104,-4
COC(=O)c1ccc(NC(=O)Cn2cc(OC)c(=O)cc2CN2CCCCC2)cc1,104,92,104,-18
CCC(C)NC(=O)c1cnn(-c2ccc(Cl)cc2)c1C1CCN(C(=O)OC(C)(C)C)CC1 (stereo unspecified),89,91,106,.
COc1ccc(C(=S)N2CCCCC2)cc1,100,84,101,-18
COC(=O)c1sccc1NC(C)=O,.,.,100,-18
Cc1cc(C)c(NS(=O)(=O)c2cc(-c3cnc(C4CC4)o3)ccc2C)c(C)c1,114,100,101,.
O=c1c(N2CCC3(CC2)OCCO3)csc2ccccc12,99,84,106,-47
Clc1ccc(C(c2ccccc2)N2CCNCC2)cc1 (stereo unspecified),73,73,104,8
O=C(Cc1cccc(C(F)(F)F)c1)NCC(c1ccco1)N1CCCCC1 (stereo unspecified),95,91,.,-9
Cc1ccc2oc(=O)c3cc(C(=O)Nc4ccccc4C(N)=O)sc3c2c1,111,87,103,-31
Cc1ccc(NC(=O)c2ccc(NC(=O)N3CCSc4ncccc43)cc2)cc1Cl,91,96,108,.
CC1Cc2ccccc2N1C(=O)COc1cccc2c1OC(C)(C)C2 (stereo unspecified),87,74,.,-6
CN(C)c1c(F)cc(-c2nn[nH]n2)cc1F,63,67,97,-16
O=C(NCc1ccc2c(c1)OCO2)c1cncc(NS(=O)(=O)c2ccc3c(c2)OCCO3)c1,.,.,105,-10
Cc1cccc(OCC(=O)NS(=O)(=O)c2ccc(Cl)cc2)c1,82,85,99,.
CN1C(=O)CC(c2ccccc2)S(=O)(=O)c2ccccc21 (stereo unspecified),102,88,103,.
CCCc1nnc(NC(=O)Cc2coc3cc(C)ccc23)s1,92,85,98,-7
Cc1ccc(/C=c2\sc3ncnn3c2=O)o1,114,91,123,.
CCc1cccc(NC(=O)Nc2ccc3c(c2)N(C)C(=O)c2ccccc2S3)c1,99,94,96,-6
COC(=O)c1cc2n(n1)CC(C)(C(=O)NC1CCCCC1)N(c1cc(OC)cc(OC)c1)C2=O (stereo unspecified),.,.,99,6
N#Cc1ccccc1COC(=O)c1ccccn1,90,96,101,1
O=C(CSc1nccc(=O)[nH]1)NC1CCCCCC1,92,94,.,8
Cc1nc(-c2cccs2)no1,108,86,106,-6
CCOC(=O)N1CCN(S(=O)(=O)c2cccc3ccc(C)nc23)CC1,104,91,98,-16

# Of the compounds above, these have sulfur.
SMILES,Sa growth 42C,Sa growth 42C second temp,GIV-Gai inh,HCMV NEC inh
CCCCOC(=O)Oc1cc2oc(=O)sc2cc1Br,16,36,103,-2
Cc1ncc(CSCC(=O)Nc2cc(C(F)(F)F)ccc2Cl)c(CO)c1O,111,87,104,.
COc1ccc(Br)cc1CNC(=O)c1cc(=O)[nH]c2ccc(S(=O)(=O)N3CCCC3)cc12,129,81,105,.
CCOc1ccccc1-c1nc(=S)[nH][nH]1,123,90,98,-38
COc1ccc(C(=S)N2CCCCC2)cc1,100,84,101,-18
COC(=O)c1sccc1NC(C)=O,.,.,100,-18
Cc1cc(C)c(NS(=O)(=O)c2cc(-c3cnc(C4CC4)o3)ccc2C)c(C)c1,114,100,101,.
O=c1c(N2CCC3(CC2)OCCO3)csc2ccccc12,99,84,106,-47
Cc1ccc2oc(=O)c3cc(C(=O)Nc4ccccc4C(N)=O)sc3c2c1,111,87,103,-31
Cc1ccc(NC(=O)c2ccc(NC(=O)N3CCSc4ncccc43)cc2)cc1Cl,91,96,108,.
O=C(NCc1ccc2c(c1)OCO2)c1cncc(NS(=O)(=O)c2ccc3c(c2)OCCO3)c1,.,.,105,-10
Cc1cccc(OCC(=O)NS(=O)(=O)c2ccc(Cl)cc2)c1,82,85,99,.
CN1C(=O)CC(c2ccccc2)S(=O)(=O)c2ccccc21 (stereo unspecified),102,88,103,.
CCCc1nnc(NC(=O)Cc2coc3cc(C)ccc23)s1,92,85,98,-7
Cc1ccc(/C=c2\sc3ncnn3c2=O)o1,114,91,123,.
CCc1cccc(NC(=O)Nc2ccc3c(c2)N(C)C(=O)c2ccccc2S3)c1,99,94,96,-6
O=C(CSc1nccc(=O)[nH]1)NC1CCCCCC1,92,94,.,8
Cc1nc(-c2cccs2)no1,108,86,106,-6
CCOC(=O)N1CCN(S(=O)(=O)c2cccc3ccc(C)nc23)CC1,104,91,98,-16

# New compounds follow:
SMILES,Sa growth 42C,Sa growth 42C second temp,GIV-Gai inh,HCMV NEC inh
CCCCN(C)c1ccc(NC(=O)C2CCC2)c(C(=O)O)c1,.,.,104,-41
Nc1nc(=S)n2c(n1)oc1ccccc12,115,94,104,-4
O=C(CCn1cnc2cc(S(=O)(=O)N3CCCC3)ccc21)N1CCN(c2ccccn2)CC1,.,.,110,-41
Cc1ccc2nc(-c3ccc(NS(C)(=O)=O)cc3)sc2c1,94,97,.,-14
CCOc1cc2c(cc1OCC)C1C(C(=O)N(C)Cc3ccccc3)c3ccccc3C(=O)N1CC2 (stereo unspecified),107,77,98,.
COc1ccc(C2N(c3ccc(OC)cc3)C(=O)C3CCCN32)cc1 (stereo unspecified),82,82,101,-18
O=C(Cn1cnc2c(nc3n2CCCCC3)c1=O)N1CCCCCC1,96,92,102,-18
Cc1nn(-c2ccccc2)c2sc(-c3n[nH]c(=S)o3)cc12,69,64,104,6
Cc1[nH]nc2nc(C(F)(F)F)cc(C(F)(F)F)c12,113,93,.,-6
Cc1ccc(CNC(=O)CSc2c(C(C)C)cnc3c2c(=O)n(C)c(=O)n3C)cc1,83,87,106,.
CCc1ccc(NC(=O)C2CCCN(S(=O)(=O)c3cccc4cccnc34)C2)cc1 (stereo unspecified),113,91,107,-41
COCC(C)n1c(C)cc(C(=O)COC(=O)c2cc(-c3ccco3)nc3ccccc23)c1C (stereo unspecified),104,95,.,-13
CN(C(=O)c1c2c(nc3ccccc13)C(=O)N(C1CCCCC1)C2)c1ccccc1,.,.,108,-58
CNC(=O)Nc1ccc(C(=O)O)cc1,103,95,98,-4
CCN(CC)c1nc2n(c(=O)n1)CCO2,100,104,93,0
N#Cc1ccc(C(=O)N2CCCSC2=NCCc2ccccc2)cc1,95,91,.,-22
CCCCN(C)CCCNC(=O)CN1C(=O)COc2ccc(S(=O)(=O)N3CCC(C)CC3)cc21,101,85,102,-12
O=C(NCC(=O)N1CCN(c2cccc(C(F)(F)F)c2)CC1)c1ccccc1,81,96,.,-33
CCC(=O)c1ccc(OC(=O)C(C(C)C)N2C(=O)c3ccccc3C2=O)cc1 (stereo unspecified),97,89,104,-9
COc1ccc(-c2ccc(=O)n(CC(=O)NCCc3ccccc3)n2)cc1,109,93,102,.
FC(F)(F)c1ccc(-c2noc(CN3CCCC3)n2)cc1,96,85,102,-33
CC1(C)Oc2ccc(NC(=O)C3(c4ccccc4)CCCC3)cc2O1,90,92,.,-12
CC(C)CNc1nc2c(c(=O)[nH]c(=O)n2C)n1CC(C)O (stereo unspecified),97,97,103,-16
COc1ccc(CNC(=O)CCc2nnc3c4cc(-c5ccc(C)cc5)nn4ccn23)cc1,.,.,101,-33
CCOc1ccc(CNCCSc2nnnn2C)cc1,98,91,108,-10
CC(C)(C)C(=O)OCC(=O)c1ccc(C(F)(F)F)cc1,111,97,104,-3
Clc1ccc(C2=CC(c3ccccc3)n3ncnc3N2)cc1 (stereo unspecified),94,50,.,-26
Nn1c(Cc2ccccc2F)nnc1SCc1cc(=O)n2ccsc2n1,88,94,.,1
FC(F)(F)c1nc2ccc(Oc3ccc4nc(C(F)(F)F)[nH]c4c3)cc2[nH]1,75,63,102,-31
CCOCC(=O)Nc1ccccc1C(C)C,99,97,103,5

# Reformatted with tabs: part of the list above
SMILES	Sa growth 42C	Sa growth 42C second temp	GIV-Gai inh	HCMV NEC inh
Cc1ccc(NC(=O)c2ccc(NC(=O)N3CCSc4ncccc43)cc2)cc1Cl	91	96	108	.
CCc1ccc(NC(=O)C2CCCN(S(=O)(=O)c3cccc4cccnc34)C2)cc1 (stereo unspecified)	113	91	107	-41

# The list continues:
SMILES,Sa growth 42C,Sa growth 42C second temp,GIV-Gai inh,HCMV NEC inh
Cc1ccc(-n2nc(C)c(C3(O)C(=O)N(C)c4ccccc43)c2N)cc1 (stereo unspecified),97,91,.,-41
Cc1ccc(C)c(NC(=O)Cn2c(=O)n(Cc3ccc4c(c3)OCO4)c(=O)c3oc4ccccc4c32)c1,94,89,103,.
CC1CCCC/C1=N/NC(=O)CNc1ccc(Cl)cc1 (stereo unspecified),101,113,107,7
O=C(O)c1ccc(C(F)(F)F)cc1,110,100,.,10
Cn1ccnc1SCC(=O)Nc1cc(Cl)ccc1Cl,93,81,107,-11
Cc1cc(C)c(NC(=O)C2CCCN(S(=O)(=O)c3c(C)noc3C)C2)c(C)c1 (stereo unspecified),106,92,104,-1
CN(C)C(=O)Nc1cnc2ccccc2c1,91,84,99,-36
COCc1cc(C)nc2n[nH]c(N)c12,89,92,.,0
O=C(Cc1ccccc1)Nc1ccc(-c2nnc(-c3ccco3)o2)cc1,101,77,98,-26
CC(C)CC(C)c1cc(N)nc2nc3ccccc3n12 (stereo unspecified),89,85,106,-16
CCc1ccccc1N(CC(=O)Nc1ccc(S(=O)(=O)N2CCOCC2)cc1)S(=O)(=O)c1ccccc1,.,.,110,11
N#Cc1cccc(C#N)c1-n1cccc1,91,74,103,-32
COc1ccc(-n2c(SCCC(C)C)nc3sc4c(c3c2=O)CC(C(C)C)OC4)cc1 (stereo unspecified),102,90,104,-26
Cc1ccc(-c2nn(C)c(=O)c3ccccc23)cc1S(=O)(=O)N1CCCC1,106,93,105,0
CCOCC(=O)Nc1nnc(CC)s1,110,85,102,-4
COc1ccc(C2=NN(S(C)(=O)=O)C(c3ccc(C)cc3)C2)cc1 (stereo unspecified),115,97,175,.
CC1=C(C(=O)Nc2cccc(C(=O)N3CCN(c4ccccn4)CC3)c2)SCCO1,.,.,100,1
CCOc1ccc2nc(N3CCCC(C(=O)NCCCN4CCN(CC)CC4)C3)sc2c1 (stereo unspecified),108,90,104,-14
CCOC(=O)CNc1nc(C(C)(C)C)nc2c1nnn2Cc1ccccc1,112,85,99,-15
N=C1C(c2nc3ccccc3c(=O)[nH]2)=C(O)CN1c1ccccc1,98,91,.,4
Cc1ccc(C)c(N2CCN(C(=O)CN3C(=O)COc4ccc(S(=O)(=O)N5CCCC5)cc43)CC2)c1,102,87,99,-31
C=CCN(C(=O)c1ccc2snnc2c1)c1ccccc1,105,86,104,2
O=C1COc2ccc(S(=O)(=O)N3CCCC3C(=O)NCc3ccc(Cl)cc3)cc2N1 (stereo unspecified),.,.,104,-17
CCC(=O)N1c2ccccc2NC2=C(C(=O)CC(C)(C)C2)C1c1ccc(-c2ccc([N+](=O)[O-])cc2)o1 (stereo unspecified),.,.,109,-28
CCCC(=O)Nc1cc(-c2nc3ccccc3[nH]2)ccc1C,.,.,102,-18
C=CCN=CC1=C(O)CCCC1=O,71,87,.,-15
Cc1cccc(C(=O)OCC(=O)Nc2ccc(Cl)cc2)c1,99,87,.,-30
O=C(Nc1cccc(C(=O)NC2CC2)c1)c1cccc(-n2cccc2)c1,96,103,.,10
O/N=C(/c1ccccc1)c1ccccn1,75,62,112,.
CC1(c2ccc(Cl)cc2Cl)OCC(Cn2cncn2)O1 (stereo unspecified),88,94,102,-40
CCOC(=O)c1ccc(N2CCN(c3ccccc3F)CC2)c(NC(=O)Nc2ccc(CC)cc2)c1,103,84,98,.
CCC(C(=O)NC(C)C)N1CCN(Cc2ccc(F)cc2)C(=O)C1=O (stereo unspecified),.,.,109,-34
Cc1cc(C)n2c(SCCN3C(=O)c4ccccc4C3=O)nnc2n1,103,93,99,-3
CCCCN1CCCC1CNC(=O)c1cc(C#N)c2ccccc2c1OC (stereo unspecified),89,68,.,-29&-57
O=C(CCn1cnnn1)Nc1ccc(F)cc1,101,92,101,-8
